# CDC25B-CDK2 inh: human CDC25B-CDK2/CyclinA binding inhibition | actives 0.72% (n = 94,000) | AID 1259370 | HTRF CDC25B-CDK2/CyclinA binding, anti-His/anti-Flag; stronger effect = higher value | z-score (test concentration not listed) | P30305+P24941;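 further: score is relative to mean and SD of negative controls; strong numbers were not always called active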
# TAR Tat displ: HIV-1 TAR-Tat binding disruption | HIV-1 TAR RNA, Tat peptide displacement FRET; stronger effect = higher value | z-score (test concentration not listed) | actives 0.6% (n = 100,000);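 further: score is relative to mean and SD of negative controls; some compounds called inactive have numbers as strong as hits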
# An asterisk follows results filed as active; . = not tested or not shown.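 How the source made its calls: active means z-score from 3 up in half or more of its runs; inactive means the rest.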 Not a hit list. About 0.89% of those tested had a hit in this group.
SMILES,CDC25B-CDK2 inh,TAR Tat displ
Cc1onc(NC(=O)c2nccnc2C(=O)O)c1Br,-1.7,.
COC(=O)C1=C(OC(=O)c2ccccc2Br)c2ccccc2S(=O)(=O)N1C(C)C,-0.05,-1.4
O=C(Nc1ccccc1Cl)C1Sc2nnc(-c3ccccc3)n2NC1c1ccccc1 (stereo not drawn),-1.9,-2
O=C(Nc1c2c(nn1-c1ccc(Cl)cc1)CSC2)C(=O)NC1CCCC1,.,-0.11
CNC(=S)NN=C1CCCCCC1,0.16,.
COc1ccc2c(c1)O[C@@H]1COc3cc(OC)c(OC)cc3[C@@H]1C2=O,.,2.6
CN1CCN(c2cc(Nc3ccc(N(C)C)cc3)c3c4c(onc24)-c2ccccc2C3=O)CC1,-0.4,-1.2
Cc1c(C(=O)O)sc2ncnc(NCCc3ccsc3)c12,.,-3.7
COc1ccc2nc(-n3nc(C)c4c3NC(=O)CC4c3sccc3C)sc2c1 (stereo not drawn),.,2.1
COCCOC(=O)C1=C(C)NC2=C(C(=O)CC(C)(C)C2)C1c1ccc(C(C)C)cc1 (stereo not drawn),-1.5,-0.23
Cc1ccc2oc(=O)c3cnn(CC(=O)Nc4cc(C)on4)c3c2c1,-1.7,0.61
O=S(=O)(NC1CCCC1)c1ccc(N2CCCCS2(=O)=O)cc1,.,1.2
O=C(Nc1ccc2nc3n(c(=O)c2c1)CCCCC3)C(=O)Nc1cc(F)ccc1F,-0.5,1.5
CCN1CCN(C(=O)CCc2nnc3ccc(N4CCOCC4)nn23)CC1,.,0.4
Cn1c(=O)n(C)c2cc(N3CCOCC3)c(NS(=O)(=O)c3ccc4c(c3)CCCC4)cc21,-2.3,2.1
CC1(C)CC(=O)C2=C(C1)Nc1ncnn1C2c1ccccc1 (stereo not drawn),-1.5,0.69
COc1cc(C2c3c(oc4cc(C)cc(C)c4c3=O)C(=O)N2Cc2ccc(F)cc2)ccc1O (stereo not drawn),0.31,0.23
Cc1ccc(CN2C(=O)SC(Nc3ccc(C)cc3)C2=O)cc1 (stereo not drawn),-0.67,.
CCOc1ccc(-c2n[nH]c3c2cnc2ccc(F)cc23)cc1,0.39,1.8
O=C(OCc1cc(=O)n2nc(C3CCCCC3)sc2n1)c1cccc(F)c1,.,-0.24
CC(C)CC1N=C2c3ccccc3N=C(SC(C)C(=O)NCc3cccs3)N2C1=O (stereo not drawn),.,-0.97
CCOC(=O)N1CCN(C(=O)C2c3ccccc3C(=O)N3CCc4ccccc4C23)CC1 (stereo not drawn),-1.2,-0.79
CCOc1ccc2nc(-n3nc(C)c4c3NC(=O)CC4c3cc(Br)cs3)sc2c1 (stereo not drawn),.,2.2
O=C(CN1c2ccccc2NC2=C(C(=O)CCC2)C1c1cccs1)NC1CCCCC1 (stereo not drawn),.,1.2
O=C1CS(=O)(=O)N(Cc2ccccc2)c2cc(Cl)ccc21,-0.19,.
CC1CCN(S(=O)(=O)c2ccc3[nH]c(=O)cc(C(=O)NCCN4CCCCC4C)c3c2)CC1 (stereo not drawn),0.24,.
Cc1ccc(OC(=O)c2cc(Br)cc3c2OCC3)cc1,-2.6,.
COCCCNC(=O)c1cnc(N2CCCC2)nc1,-1.9,-0.17
CC(=O)Oc1ccccc1/C(=C/C=C(c1ccccc1)c1ccccc1)N1CCOCC1,0.03,.
O=C(c1ccc2c(=O)n3c(nc2c1)CCCC3)N1CCc2ccccc2C1,.,2.3

# Quoted from the results shown (4 entries):
SMILES,CDC25B-CDK2 inh,TAR Tat displ
Cc1onc(NC(=O)c2nccnc2C(=O)O)c1Br,-1.7,.
COC(=O)C1=C(OC(=O)c2ccccc2Br)c2ccccc2S(=O)(=O)N1C(C)C,-0.05,-1.4
O=C(Nc1ccccc1Cl)C1Sc2nnc(-c3ccccc3)n2NC1c1ccccc1 (stereo not drawn),-1.9,-2
O=C(Nc1c2c(nn1-c1ccc(Cl)cc1)CSC2)C(=O)NC1CCCC1,.,-0.11

# Continuation:
SMILES,CDC25B-CDK2 inh,TAR Tat displ
N#CC1(c2ccccc2C2(C#N)CC2)CC1,-0.41,.
CCC1(C)CC(=O)c2c(ccc3oc(C(=O)O)c(C)c23)O1 (stereo not drawn),-1.8,1.3
Cc1cc2nc(COC(=O)COc3ccccc3)cc(=O)n2o1,.,0.61
CCc1ccc(S(=O)(=O)c2cn(CC)c3ccc(C)cc3c2=O)cc1,-1.9,-0.01
CC(=O)N(O)CCCCCNC(=O)CCC(=O)N(O)CCCCCNC(=O)CCC(=O)N(O)CCCCCN,.,-0.66
O=C(c1cnc(N2CCOCC2)nc1)N1CCN(c2ccc(Cl)cc2)CC1,.,1
CCOc1cc(/C=C2\N=C(c3ccccc3)OC2=O)ccc1OC(=O)c1cccc([N+](=O)[O-])c1,-3.7,.
S=C1NCN(CCc2ccncc2)CN1,-3,.
N#C/C(=C\c1ccco1)c1ccc([N+](=O)[O-])cc1,-0.84,.
CCC1CCCCN1CCCNc1ncnc2onc(-c3ccc(F)cc3)c12 (stereo not drawn),.,0.56
CCOC(=O)c1c(C)n(-c2ccc(OC)cc2)c2ccc(OC)cc12,-0.01,.
O=C(NC1CCCCC1)/C(=C\c1ccc(-c2cccc([N+](=O)[O-])c2)o1)NC(=O)c1ccccc1,-3,.
Cc1ccccc1Nc1nc(C2(C)CC3(CC(C)(C)OC3=O)C(=O)O2)cs1 (stereo not drawn),-2.5,.
S=C1NCCc2ccccc21,-0.43,.
CN(C)c1ccc(CNc2ccc3c(c2)ncn3C(C)(C)C)cc1,-1.4,.
CN(CCCNC(=O)C1CCCN1c1nnc(N2CCCC2=O)s1)C1CCCCC1 (stereo not drawn),.,0.7
CCCCN1C(=O)C(O)(CC(=O)c2ccc(C)o2)c2cc(Br)ccc21 (stereo not drawn),-1.1,0.12
CC(C)C(NC(=O)c1ccco1)c1nc(-c2ccc3c(c2)nnn3C2CCCC2)no1 (stereo not drawn),.,1.9
O=C1N(Cc2ccccc2)c2ccc(Br)cc2C1(O)c1c[nH]c2ccccc12 (stereo not drawn),0.6,-0.62
Cc1ccsc1CN1CCc2nc(Nc3ccc4c(c3)OCO4)ncc2C1,.,1.6
Cc1cc(=O)c2cc(C(=O)Nc3nccs3)ccc2[nH]1,-0.43,-0.1
CCCCCCCCCc1noc(-c2ccc(-c3ccccc3)cc2)n1,-2.7,.
CC(=O)Nc1nc2ccc(NC(=O)C(C)N3C(=O)COc4ccccc43)cc2s1 (stereo not drawn),.,0.58
CCOC(=O)C1CCCN(c2cc(NCc3ccco3)c3c4c(onc24)-c2ccccc2C3=O)C1 (stereo not drawn),-1.6,-1.3
CS(=O)(=O)c1ccc(C(=O)O)c(Cl)c1,0.71,.
Cc1ccc(N(C)S(=O)(=O)c2ccc3[nH]c4c(c3c2)CCCC4)cc1,.,-7.7
COC(=O)c1sc(=S)n(-c2ccc(OC)c(Cl)c2)c1N,.,2.1
COc1ccc(OC)c(NS(=O)(=O)c2ccc(Br)cc2)c1,-2.4,1.2
O=C(Cn1ncn2nc(-c3cccs3)cc2c1=O)NCCN1CCOCC1,-1.4,0.22
Cc1ccc(C(=O)CC2(O)C(=O)Nc3ccc(Br)cc32)cc1C (stereo not drawn),.,0.06
O=C(O)c1cc(-c2cccc(Br)c2)nc2n[nH]c(-c3ccccc3)c12,.,0.95
O=C1CCc2cc(S(=O)(=O)NC(Cc3ccccc3)C(=O)NC3CCCCCC3)ccc2N1 (stereo not drawn),-0.34,.
CCc1nnc2c(NCc3ccc(F)cc3)nc3ccccc3n12,1.6,1.1
CC(C)CC(=O)Nc1ccccc1SCc1cc(=O)n2ccsc2n1,.,1.1
Nc1ccccc1C(=O)CC(N)C(=O)O (stereo not drawn),.,1.8
CCOC(=O)N1CCN(C(=O)CCS(=O)(=O)c2ccc3c(c2)CC(C)N3C(=O)C2CC2)CC1 (stereo not drawn),.,-0.56
Nc1nc2nc(-c3cccc(Br)c3)cc(C(F)(F)F)n2n1,-0.63,-0.03
Cc1ccc(C)c(Nc2nc(-c3ccncc3)nc3ccccc23)c1,0.28,1
C=C(C)Cn1c(-c2ccccc2)nc2ccccc21,-0.97,0.57
Cn1c(=O)n(C)c2cc(CNCCCN3CCOCC3)ccc21,-0.64,2.9
O=c1ccc(-c2ccc(S(=O)(=O)N(CCc3ccccc3)Cc3ccccc3)o2)n[nH]1,.,0.41
Cc1noc2ncnc(Nc3ccc(F)cc3F)c12,.,0.26
O=[N+]([O-])c1ccc2nc3c(O)c4ccccc4c(O)c3nc2c1,-0.71,.
O=C(CCCc1nnc2c(=O)n(-c3cccc(F)c3)ccn12)NC1CCCC1,.,1.4
CCOC(=O)c1sc2ccccc2c1S(=O)(=O)Nc1ccc(Cl)cc1,.,-0.82
COc1cc(OC)nc(NCC(NC(=O)c2ccccc2)C(N)=O)n1 (stereo not drawn),-2.2,.
CCOC(=O)c1c(NC(=O)C(C)Oc2ccc(OC)cc2)sc2c1CCC(C)C2 (stereo not drawn),-0.8,-0.27
CCCCN[C@H]1CS(=O)(=O)C[C@@H]1S(=O)(=O)c1cccs1,-1.3,-5.5
CCN1CCCC1CNC(=O)C1Cc2ccccc2N1C(C)=O (stereo not drawn),-1.3,0.67
O=C(CSc1nc2c(cnn2-c2ccccc2)c(=O)[nH]1)Nc1nccs1,.,1.5

# The closing six entries of the section above open the next one:
SMILES,CDC25B-CDK2 inh,TAR Tat displ
CCOC(=O)c1sc2ccccc2c1S(=O)(=O)Nc1ccc(Cl)cc1,.,-0.82
COc1cc(OC)nc(NCC(NC(=O)c2ccccc2)C(N)=O)n1 (stereo not drawn),-2.2,.
CCOC(=O)c1c(NC(=O)C(C)Oc2ccc(OC)cc2)sc2c1CCC(C)C2 (stereo not drawn),-0.8,-0.27
CCCCN[C@H]1CS(=O)(=O)C[C@@H]1S(=O)(=O)c1cccs1,-1.3,-5.5
CCN1CCCC1CNC(=O)C1Cc2ccccc2N1C(C)=O (stereo not drawn),-1.3,0.67
O=C(CSc1nc2c(cnn2-c2ccccc2)c(=O)[nH]1)Nc1nccs1,.,1.5
CC12CN3CC(C)(CN(C1)C3c1ccc([N+](=O)[O-])o1)C2 (stereo not drawn),-0.82,3.4
CCC(=O)N1c2ccccc2NC2=C(C(=O)CC(c3ccccc3)C2)C1c1ccccc1 (stereo not drawn),.,1.2
CC(C)CC1N=C2c3ccccc3N=C(SC(C)C(=O)Nc3ccccc3)N2C1=O (stereo not drawn),.,0.69
COc1ccc(Nc2nnc(-n3nc(C)cc3C)c3ccccc23)c(OC)c1,.,0.96
COc1ccc(NC(=O)C2C3C=CC(C3)C2C(=O)O)cc1 (stereo not drawn),-0.83,0.02
O=C(Nc1ccc(F)cc1F)N1CCC(N2CCCCC2)CC1,-1.7,1.7
Cc1ccc(CNc2nc3nc(C)cc(C)n3n2)cc1,-0.47,1.7
O=c1[nH]c2ccc(Br)cc2c(-c2ccccc2)c1CNS(=O)(=O)c1ccccc1,-19,2.9
COC(=O)c1cc(S(=O)(=O)NC(C)(C)C)cn1C,-0.5,-1.8
Cc1nc(-c2ccc(C)c(S(=O)(=O)Nc3cccc(F)c3)c2)cs1,.,1.4

# One compound at a time, as listed above. Order of screens: CDC25B-CDK2 inh	TAR Tat displ
# `O=c1[nH]c2ccc(Br)cc2c(-c2ccccc2)c1CNS(=O)(=O)c1ccccc1` reads -19	2.9
# `COC(=O)c1cc(S(=O)(=O)NC(C)(C)C)cn1C` reads -0.5	-1.8
# `Cc1nc(-c2ccc(C)c(S(=O)(=O)Nc3cccc(F)c3)c2)cs1` reads .	1.4

# Next section
SMILES,CDC25B-CDK2 inh,TAR Tat displ
O=S1(=O)CC2SC(=S)N(c3cccc(O)c3)C2C1 (stereo not drawn),-0.13,1.1
CNC(=O)C1CCC(Cn2c(=O)c3sccc3n(CC(=O)NC3CCCCC3)c2=O)CC1 (stereo not drawn),.,1.4
CN1C(=O)c2ccccc2C(C(=O)NCC2CCCO2)C1c1cccs1 (stereo not drawn),-0.12,0.22
CCOc1ccccc1-c1c(C#N)c(N)nc2c1CCCCCC2,-1.3,.
O=C(CN1C(=O)c2cccnc2Sc2ccccc21)NCCCN1CCN(C2CCCCC2)CC1,.,1.7
CC1=CC(C)(C)Nc2ccc(OC(=O)c3ccccc3Br)cc21,0.5,-2.1
O=S(=O)(N=P(c1ccccc1)(c1ccccc1)c1ccccc1)c1ccccc1,-1.7,.
CCN(CC)S(=O)(=O)c1ccc2c(c1)N(CC(=O)N1CCCC1)C(=O)CS2,-0.22,0.75
CCOC(=O)C1CCN(c2c(-c3ccc4c(c3)OCC(=O)N4)c(=O)c2=O)CC1,.,-0.68
O=C(CN1C(=O)CCc2cc(S(=O)(=O)N3CCCCC3)ccc21)N1CCCCC1,.,0.64
O=S(=O)(NCCSc1ccc(Cl)cc1)c1ccc2c(c1)OCCO2,0.83,0.28
O=c1c(Cc2ccc(Cl)c(Cl)c2)csc2ccccc12,0.66,.
CN1C(=O)c2ccccc2C(C(=O)N2CCc3ccccc3C2)C1c1cccs1 (stereo not drawn),.,1.2
COC(=O)c1csc(S(=O)(=O)N2CCOCC2)c1OC,-1.7,.
CN(Cc1ccco1)C(=O)Cn1ncc2c([nH]c3ccccc32)c1=O,.,-0.14
O=C(CSc1oc(-c2ccco2)nc1S(=O)(=O)c1ccc(Cl)cc1)Nc1ccc(F)cc1,-1.1,-5.2
COC(=O)c1sc(=S)n(Cc2ccco2)c1C,-0.54,.
COc1cc2c(=O)c(C(=O)c3ccc(F)cc3)cn(Cc3ccccc3)c2cc1OC,-1.5,0.17
CSc1cc(-c2ccc(Cl)cc2)[nH]c(=O)c1C#N,-1.7,.
Cc1nc2nc(C)c(CCC(=O)Nc3ccc(Br)cc3)c(C)n2n1,-1.3,.
CCCCNCc1c(C(=O)O)c(C)n(Cc2cc(C)ccc2C)c1C,-0.94,1.1
O=C(Nc1cccc(Cl)c1)c1cc2ccc3cccnc3c2[nH]1,.,-1.9
CCOC(=O)N1CCN(S(=O)(=O)c2ccc3c(c2)NC(=O)CO3)CC1,.,3.8
